KCNQ2 enhance = enhances the rat KCNQ2 potassium channel. O88943. CHO-K1 KCNQ2, FluxOR thallium flux fluorescence; stronger effect = higher value. B-score at 10 µM. hit rate 0.54% among 310,000;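 active = fluorescence ratio B-score at least 3 SD of library B-scores, with initial fluorescence B-score within 3 SD, cut at about 5.3 in these data; same plate scores as AID 2156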;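 note: B-score of peak minus minimum over baseline fluorescence ratio after K+ and Tl+ stimulus; positive B-score means potentiation of KCNQ2 with more thallium influx and brighter signal; only the inactives scoring about 0 or higher are listed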
KCNQ2 enhance baseline = further read-out of KCNQ2 enhance, marked with its call; B-score; compound at 10 µM; measured here: initial fluorescence intensity artifact check;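 brightness before thallium and not channel activity; 0 = typical well and far values either way flag optical interference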
Numbers without * were called inactive. Some of the compounds tested; rates above refer to the full screens.

#1 O=P(C(c1ccc2c(c1)OCO2)N1CCOCC1)(N1CCOCC1)N1CCOCC1 (stereo not drawn)
#2 COc1ccccc1-n1c(-c2cccs2)nc2ccccc2c1=O
#3 CC(=O)Nc1cc(C(=O)N2CCC3(CC2)OCCO3)ccc1Sc1ccc(F)cc1
#4 Cc1cccc(C)c1OP(N)(=O)Oc1c(C)cccc1C
#5 Cc1cccc(-n2c(/C=C/c3ccc([N+](=O)[O-])o3)nc3ccccc3c2=O)c1
#6 COc1cc2c(cc1OC)-c1c3c(cc4c1[C@@H](C2)N(C)CC4)OCO3

entry no. | 1 | 2 | 3 | 4 | 5 | 6
KCNQ2 enhance | 1.11 | 0.76 | 0.03 | 0.18 | 0.81 | 0.48
KCNQ2 enhance baseline | 1.39 | 0.69 | -1.37 | 1.09 | -0.72 | -0.32

Quoted at random: 6 compounds from above
#5 Cc1cccc(-n2c(/C=C/c3ccc([N+](=O)[O-])o3)nc3ccccc3c2=O)c1
#6 COc1cc2c(cc1OC)-c1c3c(cc4c1[C@@H](C2)N(C)CC4)OCO3
#3 CC(=O)Nc1cc(C(=O)N2CCC3(CC2)OCCO3)ccc1Sc1ccc(F)cc1
#4 Cc1cccc(C)c1OP(N)(=O)Oc1c(C)cccc1C
#2 COc1ccccc1-n1c(-c2cccs2)nc2ccccc2c1=O
#1 O=P(C(c1ccc2c(c1)OCO2)N1CCOCC1)(N1CCOCC1)N1CCOCC1 (stereo not drawn)

entry no. | 5 | 6 | 3 | 4 | 2 | 1
KCNQ2 enhance | 0.81 | 0.48 | 0.03 | 0.18 | 0.76 | 1.11
KCNQ2 enhance baseline | -0.72 | -0.32 | -1.37 | 1.09 | 0.69 | 1.39

Other records follow:
#7 COP(=O)(OC)C(NC(=O)C(C)(C)C)=C(Cl)Cl
#8 COP(=S)(OC)SCN1C(=O)c2ccccc2C1=O
#9 COc1ccc(OCC(=O)N2CCN(CC3CC4C=CC3C4)CC2)cc1 (stereo not drawn)
#10 COc1ccc2nc(NC(=O)CCc3nc(C4=CCN(C)CC4)no3)sc2c1
#11 CCn1c(O)c(C=Nc2cc(Cl)ccc2Cl)c(=O)n(CC)c1=O
#12 CC1CN(C(=O)CCC(=O)N2CCC3(CC2)OCCO3)c2cc(Cl)ccc2O1 (stereo not drawn)

entry no. | 7 | 8 | 9 | 10 | 11 | 12
KCNQ2 enhance | 0.77 | 0.55 | 1.53 | 1.17 | 0.44 | 1.06
KCNQ2 enhance baseline | -0.17 | 1.18 | -0.13 | 1.51 | -1.51 | -0.89

Quoted from the listing.
COP(=O)(OC)C(NC(=O)C(C)(C)C)=C(Cl)Cl @ KCNQ2 enhance: 0.77
COc1ccc2nc(NC(=O)CCc3nc(C4=CCN(C)CC4)no3)sc2c1 @ KCNQ2 enhance baseline: 1.51

New compounds follow:
#13 Cc1cc(N2CCCC2)ccc1C=C(C#N)C#N
#14 O=C(COc1ccccc1)N1CCN(C2CCCC2)CC1
#15 CCC(=NCCCN(CC)CC)c1c(O)n(C2CCCCC2)c(=O)[nH]c1=O
#16 Cc1nc2ccccc2c(=O)n1-c1cccc(C(F)(F)F)c1
#17 CCC(=Nc1ccc(OC)cc1OC)c1c(O)[nH]c(=O)[nH]c1=O
#18 Cc1cccc(C)c1NC(=O)c1cccn(Cc2ccc3c(c2)OC(F)(F)O3)c1=O

entry no. | 13 | 14 | 15 | 16 | 17 | 18
KCNQ2 enhance | 0.66 | 1.42 | 1.28 | 0.33 | 0.01 | 1.02
KCNQ2 enhance baseline | 1.71 | 1.3 | -1.95 | -0.68 | 0.04 | -1.24

#19 O=c1cccc2n1CC1CC2CN(Cc2c(F)cccc2Cl)C1 (stereo not drawn)
#20 CCOC(=O)c1c(C)[nH]c(C(=O)C(C)N2CCCC2)c1C (stereo not drawn)
#21 COc1ccc(CNCCc2ccc(Cl)cc2Cl)cc1
#22 Cc1ccc(S(=O)(=O)N(C)c2ccc(C(=O)NCC3(N(C)C)CCCCC3)cc2)cc1
#23 O=C(Nc1cccc(Cl)c1)c1c(O)c2c(n(Cc3ccco3)c1=O)CCCC2
#24 CCOC(=O)c1cc(CC)sc1/N=C/C1C(=O)NC(=S)NC1=O
#25 CC1=Nc2ccccc2/C1=C/c1c(O)[nH]c(=O)[nH]c1=O

entry no. | 19 | 20 | 21 | 22 | 23 | 24 | 25
KCNQ2 enhance | 0.97 | 0.21 | 1.18 | 0.22 | 0.09 | 1.3 | 0.19
KCNQ2 enhance baseline | -0.49 | 0.34 | 0.08 | -0.29 | -3.14 | -0.02 | -0.21
